Screening results from PubChem.
D2 PAM: potentiates the human D2 dopamine receptor allosterically. DiscoveRx D2 beta-arrestin cells, luminescence, 90 min; 100% = 57 uM dopamine signal. hit rate 0.23% among 360,000. AID 624464. potentiation, % (no concentration beside the values); active = potentiation of 50% or more; inconclusive = 30% to 50%; inactive = 30% or less;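 further: compound concentration not given in the record; tested on top of an EC20 dose of dopamine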
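PathHunter beta-arrestin assay in DiscoveRx D2 cells. Compounds were added with an EC20 of dopamine (50 nM final) for 90 min at 37 deg C. Luminescence was read 1 h after detection reagent, with 57 uM dopamine as the EC100 control.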
TRPV1 potentiator: human TRPV1 potentiation | TRPV1-expressing cells, Fluo-8 calcium influx, capsaicin EC20 potentiation; host cell line not named in the record; control for the full effect not named in the record | AID 540277 | Q8NER1 | potentiation, % at 8.33 µM | hit rate 0.02% among 320,000; active means potentiation above 80%; inconclusive means 30% to 80%; inactive means below 30%; further: 0% is about no effect
Target sequence (Q8NER1 whole entry, looked up): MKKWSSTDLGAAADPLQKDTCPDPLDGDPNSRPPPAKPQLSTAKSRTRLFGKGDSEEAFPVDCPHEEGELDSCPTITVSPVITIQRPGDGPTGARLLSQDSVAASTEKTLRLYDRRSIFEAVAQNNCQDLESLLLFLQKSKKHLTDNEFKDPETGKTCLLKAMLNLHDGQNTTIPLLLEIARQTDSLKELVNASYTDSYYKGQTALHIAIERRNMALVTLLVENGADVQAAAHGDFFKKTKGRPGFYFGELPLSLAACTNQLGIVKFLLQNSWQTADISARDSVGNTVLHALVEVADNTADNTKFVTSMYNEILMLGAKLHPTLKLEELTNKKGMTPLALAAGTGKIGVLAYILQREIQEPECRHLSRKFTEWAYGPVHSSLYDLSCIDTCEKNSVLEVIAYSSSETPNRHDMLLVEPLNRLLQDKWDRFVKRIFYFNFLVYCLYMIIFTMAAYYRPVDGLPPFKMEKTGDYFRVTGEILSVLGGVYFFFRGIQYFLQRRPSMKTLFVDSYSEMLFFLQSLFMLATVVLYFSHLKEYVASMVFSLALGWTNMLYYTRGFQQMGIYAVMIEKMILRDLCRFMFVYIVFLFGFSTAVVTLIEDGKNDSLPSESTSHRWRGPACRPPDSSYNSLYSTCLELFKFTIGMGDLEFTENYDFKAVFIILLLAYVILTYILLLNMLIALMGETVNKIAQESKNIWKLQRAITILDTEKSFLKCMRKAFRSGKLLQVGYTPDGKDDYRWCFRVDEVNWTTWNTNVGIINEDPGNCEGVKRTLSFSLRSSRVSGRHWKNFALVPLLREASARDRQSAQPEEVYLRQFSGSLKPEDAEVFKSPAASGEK
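Fluo-8 calcium influx in TRPV1-expressing cells, kinetic read (ex 480/em 520 nm). Compound added and read 3 min for agonist activity, followed by capsaicin at EC20 final and 2 min further read for enhancement.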
Six1-Eya2 inh: inhibitors of human Six1/Eya2 interaction; AlphaScreen GST-Six1/His-Eya2 binding, biochemical; active compounds read low; control for the full effect not named in the record; activity change, % (no concentration beside the values); Q15475+O00167; hit rate 0.56% among 360,000; in the data active = activity change below about -65%; inconclusive = about -30% to -65%; inactive = above about -30%; further: on the % scale 0 is the no-effect control and ±100 the full control effect
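GST-Six1 + His-Eya2 (5X stock: 250/500 nM); Tris pH 8.0, 300 mM NaCl, 0.05% BSA, 0.02% Tween 20; GSH donor/Ni acceptor beads; 1 h 37 °C dark; AlphaScreen readout.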
CtBP-E1A blk: blocks the CtBP interaction with E1A. AlphaScreen GST-E1A/His-CtBP binding, 1536-well; active compounds read low; control for the full effect not named in the record. activity change, % (concentration not given with the values). hit rate 0.49% among 340,000; in the data active means activity change below about -65%; inconclusive means about -30% to -65%; inactive means above about -30%; further: on the % scale 0 is the no-effect control and ±100 the full control effect
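In 5 uL wells, 23 nL compound meets equimolar GST-E1A and His-CtBP (5X stock 125 nM each) for 2 h, 37 °C. Beads (5X, 50 ug/mL) then 1 h, 37 °C, dark.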
TRPML1 agonist: activates the human TRPML1 channel; Q9GZU1; TRPML1-expressing cells, Ca2+ dye fluorescence, FDSS; host cell line not named in the record; reference of the full effect not given here; activation, % (test concentration not listed); hit rate 0.12% among 410,000; in the data active = activation above about 50%; inconclusive = about 30% to 50%; inactive = below about 30%; further: 0% is about no effect; the text of the record puts the active cut at 80%
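TRPML1-DL cells, Tet-induced overnight (~16 h, 37 degrees C), loaded 45-90 min at room temperature with Ca8 no-wash calcium dye plus quencher. FDSS fluorescence: 10 s baseline, compound pin-transfer, 110 s agonist read, then EC80 54-4 (4uM final) and 110 s antagonist read.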
TRPML1 inh: blocks the human TRPML1 channel | Q9GZU1 | TRPML1-inducible cells, Ca2+ dye fluorescence, FDSS; active compounds read low; inhibition of EC80 agonist-evoked calcium signal | activity change, negative = inhibition, % (no concentration beside the values) | hit rate 0.02% among 390,000; in the data active means activity change below about -50%; inconclusive means about -30% to -50%; inactive means above about -30%;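 further: stimulus is agonist 54-4 at its EC80 concentration; on the % scale 0 is the no-effect control and ±100 the full control effect; compound concentration not given in the record; the text of the record puts the active cut at -80%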
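TRPML1-DL cells, Tet-induced overnight (~16 h, 37 °C) at 1,500 cells/well, were loaded with Ca8 no-wash dye plus quencher for 45-90 min at room temperature. Compounds were pinned during FDSS kinetic reading; agonist 54-4 at EC80 (4 uM final) then added.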
Starred values were filed as active, the others as inactive; ? = inconclusive; / = no result given; & = joins results of further samples.

#1 CC(OC(=O)CSc1ccc([N+](=O)[O-])cc1)C(=O)NC1CC1 (centres undefined)
#2 O=C(c1cccc(O)c1)N1CCN(C(=O)C2CC2)CC1
#3 NC(=O)CSc1nc2scc(-c3ccc(Cl)cc3)c2c(=O)n1Cc1ccccc1
#4 O=C(Cn1cc2c(n1)CCCC2)NC1CCN(Cc2ccccc2)CC1
#5 CCSc1nnc(-c2ccncc2)n1Cc1ccccc1
#6 O=C(NC1CC2CCC(C1)N2Cc1nnnn1Cc1ccco1)NC12CC3CC(CC(C3)C1)C2 (centres undefined)
#7 Brc1c(CSc2nncc3ccccc23)nc2ccccn12
#8 CCN1CCN(c2ccc(NC(=O)c3cccnc3)cc2Cl)CC1
#9 Nc1nnnn1/N=C/c1ccc(O)cc1
#10 Cc1occc1-c1nnc(SCC(=O)Nc2c(F)cccc2F)n1C
compound no.,1,2,3,4,5,6,7,8,9,10
D2 PAM,-16,-9,5,-9,-5,-3,-4,-17,2,2
TRPV1 potentiator,-4,/,12,/,-3,-10,17,-13,0,6
Six1-Eya2 inh,6,5,0,11,4,22,-6,2,0,4
CtBP-E1A blk,-5,-3,8,7,3,22,0,3,-4,3
TRPML1 agonist,1.0,1.7,-0.4,0.0,0.7,4.9,-0.1,1.2,-0.7,0.2
TRPML1 inh,1,7,2,-8,17,-22,-3,29,-1,-4

#11 O=C(CCCCl)NC(=S)Nc1ccc(N2CCOCC2)cc1
#12 COc1cc2[nH]c(=O)n(CCCCCC(=O)NCCCN3CCC(C)CC3)c(=O)c2cc1OC
#13 COc1cc(CN2CCNC(=O)C2CC(=O)N(C)CCN2CCOCC2)cc(OC)c1 (centres undefined)
#14 Cc1ccc(C)c(NS(=O)(=O)c2ccc3c(c2)NC(=O)CCS3)c1
#15 COc1ccccc1/C=C(/C(=O)OCC(=O)Nc1ccc(N(C)C)cc1)c1ccccc1
#16 COc1ccc(CNC(=O)CN(CCC(C)C)S(=O)(=O)c2ccc3c(c2)OCCO3)cc1
#17 O=C(COC(=O)Cc1ccc(Cl)cc1)Nc1ccc(OC(F)F)cc1
#18 CN(C)CCn1c2c(c(SCC(=O)Nc3ccccc3)nc1=O)CCCC2
#19 O=C(NNC(=O)c1cnccc1C(F)(F)F)c1cccc(Cl)c1
#20 CC[C@@]12C(=O)N(c3cccc(Cl)c3)C(=O)N1[C@H](c1ccc(Br)cc1)[C@@H]1C(=O)N(C(C)(C)C)C(=O)[C@@H]12
compound no.,11,12,13,14,15,16,17,18,19,20
D2 PAM,0,-8,2,4,-16,-21,-3,-5,-3,-9
TRPV1 potentiator,-11,-8,15,-13,-2,-21,-1,3,4,-11
Six1-Eya2 inh,9,?,20,3,-14,5,2,-2,2,0
CtBP-E1A blk,2,-22,4,0,-12,8,11,8,20,/
TRPML1 agonist,1.6,-0.5,0.2,-0.5,2.2,1.4,-0.3,-0.3,0.8,0.4
TRPML1 inh,5,-1,-18,1,5,4,-6,9,-16,13

#21 O=C1c2ccccc2S(=O)(=O)N1CC1CC(c2ccccc2)=NO1 (centres undefined)
#22 CN(C(=O)COc1ccc(Cl)cc1Cl)c1nnc(C23CC4CC(CC(C4)C2)C3)s1
#23 O=C(NN=Cc1ccc(Cl)cc1Cl)c1ccccc1
#24 OCCNCCOc1ccccc1-c1ccccc1
#25 CCOC(=O)C1=C(CN2CCSCC2)NC(=O)NC1c1ccc2c(c1)OCO2 (centres undefined)
#26 CCN1CCN(CC(O)COc2ccc3c(c2)CCC3)CC1 (centres undefined)
#27 CCOC(=O)c1ccc(CNC(=O)c2cc(COc3ccccc3SC)on2)o1
#28 CSCCC(NC(=O)c1ccccc1Br)C(=O)NC(C)CCc1ccccc1 (centres undefined)
#29 Cc1cc(C)nc(-n2nc(C)c3c(C(F)F)cc(C)nc32)n1
#30 Cc1cc2cc(CNC(=O)COc3ccccc3)ccc2n1C
compound no.,21,22,23,24,25,26,27,28,29,30
D2 PAM,-8,-4,-23,-24,-5,-14,-12,0,-14,-6
TRPV1 potentiator,14,1,/,-11,0,2,25,-6,-7,7
Six1-Eya2 inh,11,2,-7,9,-1,1,-8,7,26,-1
CtBP-E1A blk,1,4,-2,6,0,-11,/,-5,2,-6
TRPML1 agonist,-1.2,-0.2,-0.1,0.6,0.6,-0.8,2.7,2.0,0.7,1.1
TRPML1 inh,-13,11,8,-23,5,22,18,17,-2,19

#31 COc1cc(C(=O)N2CC(C)OC(C)C2)c([N+](=O)[O-])cc1OC (centres undefined)
#32 COCCn1c(SCCN2CCOCC2)nc2c1c(=O)[nH]c(=O)n2C
#33 COc1ccc(NC(=O)c2cccc3c(-c4ccc(O)c(OC)c4)coc23)cc1
#34 CSc1cccc(NC(=O)/C=C/c2ccco2)c1
#35 COc1cccc(-c2nc(S(=O)(=O)c3ccccc3)c(N3CCOCC3)o2)c1
#36 CCOc1ccc(-n2ccnc(SCC(=O)Nc3ccc(OC)cc3OC)c2=O)cc1
#37 Cc1ccc(C(=O)N(Cc2sccc2C)C2CCS(=O)(=O)C2)cc1 (centres undefined)
#38 Cc1cc2c(cc1C)N(C(=O)CCl)CCN2C(=O)CCl
#39 Cc1cc(C)n(C(=O)c2ccc(NC(=O)C3CC3)cc2)n1
#40 Cc1cc(C)cc(-n2ncc3c2CCCC3NC(=O)CCN2CCCC2=O)c1 (centres undefined)
compound no.,31,32,33,34,35,36,37,38,39,40
D2 PAM,7,0,-3,-18,-21,9,-20,3,-1,-13
TRPV1 potentiator,26,1,/,-18,-9,1,-12,/,-8,-3
Six1-Eya2 inh,4,-7,-22,-17,-9,-22,24,2,1,2
CtBP-E1A blk,10,1,-14,-6,7,2,4,2,6,5
TRPML1 agonist,0.1,-0.6,-1.0,-0.5,1.2,0.3,-0.5&1.5,-0.3,-0.4,-0.2
TRPML1 inh,-14,7,/,5,35,24,-21&-8,3,-7,-1

A second format for 16 compounds above:
No. | canonical_smiles | D2 PAM | TRPV1 potentiator | Six1-Eya2 inh | CtBP-E1A blk | TRPML1 agonist | TRPML1 inh
22 | CN(C(=O)COc1ccc(Cl)cc1Cl)c1nnc(C23CC4CC(CC(C4)C2)C3)s1 | -4 | 1 | 2 | 4 | -0.2 | 11
23 | O=C(NN=Cc1ccc(Cl)cc1Cl)c1ccccc1 | -23 | / | -7 | -2 | -0.1 | 8
24 | OCCNCCOc1ccccc1-c1ccccc1 | -24 | -11 | 9 | 6 | 0.6 | -23
25 | CCOC(=O)C1=C(CN2CCSCC2)NC(=O)NC1c1ccc2c(c1)OCO2 (centres undefined) | -5 | 0 | -1 | 0 | 0.6 | 5
26 | CCN1CCN(CC(O)COc2ccc3c(c2)CCC3)CC1 (centres undefined) | -14 | 2 | 1 | -11 | -0.8 | 22
27 | CCOC(=O)c1ccc(CNC(=O)c2cc(COc3ccccc3SC)on2)o1 | -12 | 25 | -8 | / | 2.7 | 18
28 | CSCCC(NC(=O)c1ccccc1Br)C(=O)NC(C)CCc1ccccc1 (centres undefined) | 0 | -6 | 7 | -5 | 2.0 | 17
29 | Cc1cc(C)nc(-n2nc(C)c3c(C(F)F)cc(C)nc32)n1 | -14 | -7 | 26 | 2 | 0.7 | -2
30 | Cc1cc2cc(CNC(=O)COc3ccccc3)ccc2n1C | -6 | 7 | -1 | -6 | 1.1 | 19
31 | COc1cc(C(=O)N2CC(C)OC(C)C2)c([N+](=O)[O-])cc1OC (centres undefined) | 7 | 26 | 4 | 10 | 0.1 | -14
32 | COCCn1c(SCCN2CCOCC2)nc2c1c(=O)[nH]c(=O)n2C | 0 | 1 | -7 | 1 | -0.6 | 7
33 | COc1ccc(NC(=O)c2cccc3c(-c4ccc(O)c(OC)c4)coc23)cc1 | -3 | / | -22 | -14 | -1.0 | /
34 | CSc1cccc(NC(=O)/C=C/c2ccco2)c1 | -18 | -18 | -17 | -6 | -0.5 | 5
35 | COc1cccc(-c2nc(S(=O)(=O)c3ccccc3)c(N3CCOCC3)o2)c1 | -21 | -9 | -9 | 7 | 1.2 | 35
36 | CCOc1ccc(-n2ccnc(SCC(=O)Nc3ccc(OC)cc3OC)c2=O)cc1 | 9 | 1 | -22 | 2 | 0.3 | 24
37 | Cc1ccc(C(=O)N(Cc2sccc2C)C2CCS(=O)(=O)C2)cc1 (centres undefined) | -20 | -12 | 24 | 4 | -0.5&1.5 | -21&-8

(continued)
#41 N#C/C(=C\c1ccc(Oc2ccc(C(F)(F)F)cc2[N+](=O)[O-])cc1)c1nc2ccccc2[nH]1
#42 CNC(=O)c1nc(C)n(-c2ccc([N+](=O)[O-])cc2)n1
#43 COc1ccc(CC(=O)O/N=C(\N)Cc2ccc(OC)c(OC)c2)cc1
#44 CN(CC(=O)Nc1ccc(C#N)cc1)CC(=O)Nc1ccc(N2CCOCC2)cc1
#45 COCCc1ccc(OC2(C)CCN(Cc3cccc(OC)c3OC)C2)cc1 (centres undefined)
#46 COc1cc2c(cc1OC)C(Nc1ccccc1)=NC(C)(C)C2
#47 CCCOC(=O)c1ccc(Oc2cn[nH]c2-c2ccc(OCC)cc2O)cc1
#48 Cn1cnc(S(=O)(=O)Nc2ccc3c(c2)OCCO3)c1
#49 Fc1cccc(Cl)c1CSc1ccc(-c2ccco2)nn1
#50 O=c1[nH]c(CN2CCN(c3ccccn3)CC2)nc2c(Br)cc(Br)cc12
compound no.,41,42,43,44,45,46,47,48,49,50
D2 PAM,-11,-2,4,-10,-8,0,6,-2,11,-13
TRPV1 potentiator,-7,4,-10,-14,/,-2,0,10,-4,-6
Six1-Eya2 inh,-10,4,-1,0,-2,3,-9,-7,15,1
CtBP-E1A blk,-3,-3,7,8,0,8,0,4,0,-10
TRPML1 agonist,0.9,-0.7,0.4,0.7,-0.5,0.9,0.9,1.4,1.2,/
TRPML1 inh,-5,11,6,5,/,-7,16,-21,-5,/

#51 O=C1CC2(CCOCC2)Oc2ccc3ccccc3c21
#52 COC(=O)C(C)Sc1ccc2nnc(-c3cccc(F)c3)n2n1 (centres undefined)
#53 Cc1ccc(NC(=O)C2CCN(S(=O)(=O)c3cccs3)CC2)cc1C
#54 Cc1ccc(C(=O)NCCN2CCOCC2)cc1S(=O)(=O)N1CCCCC1
#55 O=C(NNC1=NCCCCC1)Nc1ccc(Cl)cc1
#56 CCCc1cc(=O)[nH]c(SCC(=O)c2ccc3c(c2)NC(=O)CO3)n1
compound no.,51,52,53,54,55,56
D2 PAM,-11,-6,-14,-7,-14,-4
TRPV1 potentiator,/,-10,-9,11,13,9
Six1-Eya2 inh,-2,-6,6,0,2,-12
CtBP-E1A blk,5,-9,-8,3,4,-11
TRPML1 agonist,-0.7,1.0&-0.9,1.7,-0.1,0.0,0.7
TRPML1 inh,7,0,1,-4,9,10
